Screening results: PubChem BioAssay, National Center for Advancing Translational Sciences (NCATS)
LASV entry inh: inhibitors of Lassa virus binding or cell entry; Lassa virus pseudotype entry inhibition, cell reporter; control for the full effect not named in the record; 300,000 compounds, 1.2% hits; Potency, µM (series often up to 37.9 µM), for inactives: top-dose activity change, negative = inhibition, most hits filed as inhibitors; active means well fitted inhibition curve with a large enough effect; inconclusive means small, poorly fitted or top-dose-only effect, or effect the other way; inactive means flat fitted curve, though single readings scatter; tested in HEK293 cells; further: on the % scale 0 is the no-effect control and ±100 the full control effect; nearly all actives have a fitted effect of over 50% in size; luciferase read-out
RE007 growth inh: less growth of the S. pombe RE007 Vpr strain. 360,000 compounds, 0.21% hits. AID 651644. S. pombe RE007 Vpr strain, BacTiter-Glo ATP luminescence, 24 h; control for the full effect not named in the record. Potency, µM (titrated, usually from 92.2 µM), for the others: at the highest dose activity change, negative = less growth; active = well fitted falling curve with a large enough effect; inconclusive = small, poorly fitted or top-dose-only effect; inactive = no such curve, though single readings can be large or run the other way;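 further: on the % scale 0 is the no-effect control and ±100 the full control effect; nearly all actives have a fitted effect of over 50% in size; the assay follows cell death caused by Vpr and the record does not say whether a fall means rescue or toxicity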
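Fission yeast strain RE007, carrying one chromosomally integrated HIV-1 vpr copy, was seeded at OD 0.01 in PMG+AL medium with 23 nL pinned compound. After 24 h at 30 °C and 99% humidity, viability was read by BacTiter-Glo luminescence.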
MARV entry inh: blocks Marburg virus binding to or entry into cells; Marburg virus pseudotyped entry inhibition, cell reporter; control for the full effect not named in the record; about a third of the inactives were read at about 46 µM; Potency, µM (series often up to 37.8 µM), for inactives: at the top dose activity change, negative = inhibition, usual class: inhibitors; 300,000 compounds, 1.8% hits; active = well fitted inhibition curve with a large enough effect; inconclusive = small, poorly fitted or top-dose-only effect, or effect the other way; inactive = flat fitted curve, though single readings scatter; tested in HEK293 cells; about a fifth of its hits are not listed in these tables; further: on the % scale 0 is the no-effect control and ±100 the full control effect; luciferase read-out
NS1 function inh: blocks influenza NS1 protein function; S. cerevisiae slowed by influenza A NS1, growth recovery by OD600; Potency, µM (highest dose often 46.1 µM), for the others: at the top dose activity, positive = more growth; 270,000 compounds, 0.4% hits; active means well fitted rising curve with a large enough effect; inconclusive means small, poorly fitted or top-dose-only effect; inactive means no such curve, though single readings can be large or run the other way; further: nearly all actives have a fitted effect of over 50% in size
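S. cerevisiae expressing influenza A NS1, grown in glucose, washed, then diluted 1:100 into pH 6.0 -URA galactose medium with 23 nl compound. Growth recovery read as OD600; NS1-free strain serves as control.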
SARS PLP yeast: inhibitors of SARS-CoV papain-like protease in yeast; S. cerevisiae expressing SARS-CoV PLpro, growth rescue; control for the full effect not named in the record; Potency, µM (series often up to 32.9 µM), for the others: top-dose activity, positive = growth rescue; 330,000 compounds, 0.19% hits; AID 485353; active means well fitted rising curve with a large enough effect; inconclusive means small, poorly fitted or top-dose-only effect; inactive means no such curve, though single readings can be large or run the other way; further: 0% is about no effect; nearly all actives have a fitted effect of over 55% in size; growth read by luminescence after 48 h
Cruzain inh Det: cruzain (T. cruzi) inhibition with detergent | P25779 | purified cruzain, Z-FR-AMC fluorescence, 0.01% Triton | Potency, µM, without a hit: max response, negative = inhibition, most hits filed as inhibitors | 200,000 compounds, 0.43% hits;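 further: plate controls were neutral wells for no effect and buffer without enzyme for full effect; nearly all actives have a fitted effect of over 40% in size; top concentration of the series not given in the record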
Target sequence (P25779 123-467 limits assumed): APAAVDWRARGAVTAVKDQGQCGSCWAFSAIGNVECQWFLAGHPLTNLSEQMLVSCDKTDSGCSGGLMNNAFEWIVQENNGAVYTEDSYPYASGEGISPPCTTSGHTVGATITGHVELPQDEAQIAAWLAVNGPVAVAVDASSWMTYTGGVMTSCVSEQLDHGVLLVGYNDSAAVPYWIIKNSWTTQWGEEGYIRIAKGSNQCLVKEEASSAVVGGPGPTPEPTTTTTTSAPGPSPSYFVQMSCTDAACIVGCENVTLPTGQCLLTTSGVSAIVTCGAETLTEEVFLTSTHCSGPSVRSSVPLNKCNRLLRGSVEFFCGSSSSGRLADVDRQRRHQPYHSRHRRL
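15 min RT preincubation of 1.5 nM cruzain with compound, then 2 uM Z-FR-AMC added; kinetic AMC fluorescence, 60 s delta. Triton X-100 0.01%, pH 5.5.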
2A StopGo: FMDV 2A StopGo reporter, luciferase signal; Potency, µM (titrated, usually from 57.9 µM), without a hit: top-dose signal change, negative = less light; AID 1159524; 410,000 compounds, 1.2% hits; human cells with a luciferase reporter of 2A StopGo recoding; control for the full effect not named in the record; active = well fitted falling curve with a large enough effect; inconclusive = small, poorly fitted or top-dose-only effect; inactive = no such curve, though single readings can be large or run the other way; tested in HEK293T cells; further: on the % scale 0 is the no-effect control and ±100 the full control effect; nearly all actives have a fitted effect of over 45% in size; luciferase light after 4 h
Cruzain inh noDet: inhibitors of Trypanosoma cruzi cruzain without detergent | P25779 | purified cruzain, Z-FR-AMC fluorescence, no detergent | Potency, µM, inactives show max response, negative = inhibition, most hits filed as inhibitors | 200,000 compounds, 2.3% hits;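 further: plate controls were enzyme without inhibitor for no effect and buffer without enzyme for full effect; nearly all actives have a fitted effect of over 40% in size; top concentration of the series not given in the record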
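Purified cruzain at 1.5 nM, pre-incubated 15 min with compound at room temperature in 100 mM sodium acetate pH 5.5, 5 mM DTT, 0.00005% Triton X-100. Reaction started with 2 uM Z-FR-AMC; AMC fluorescence increase over 60 s gives rate.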
Active calls of the source: *; ? = inconclusive; . = not tested or not shown; & = joins results of further samples; [ ] = another dose, or the depositor's remark. Unless noted, the call rests on the fitted dose curve; in most records, active means well fitted curve in the direction sought with a large enough effect; inconclusive means small, poorly fitted or top-dose-only effect, or another doubt; inactive means no such curve, though single readings can be large; an effect the other way counts as inactive or inconclusive. Potency means the concentration at half of the fitted maximal effect. Rows are unselected; 4.7% or so of the library scored in one or more.

Order of values – LASV entry inh	RE007 growth inh	MARV entry inh	NS1 function inh	SARS PLP yeast	Cruzain inh Det	2A StopGo	Cruzain inh noDet
Cc1nn(C)c(N)c1C(O)(c1nccn1C)C(F)(F)F (configuration not stated)
  14%	7%	6%	-2%	-2%	1.3%	-2%	1%
O=C(NNC(=S)NC(=O)c1cccnc1)c1ccc(Cl)cc1
  -1%	-7%	0%	-87%	-10%	-0.8%	0%	-3%
CCOc1ncccc1C(=O)OCC(=O)Nc1cc(C)ccc1C
  8%	12%	-1%	-12%	-2%	1.8%	27%	-9%
CC1CCN(C(=O)CSc2nnc(-c3ccccc3Cl)o2)CC1
  5%[46.1 µM]	.	13%[46.1 µM]	.	.	-3.5%	10%	1%
CCOC(=O)c1c(NC(=O)COc2cccc(C)c2C)sc(C(C)=O)c1C
  20%[46.1 µM]	.	.	.	.	-0.6%	0%	15%
O=C1CC2(CCN(C(=O)c3ccccc3[N+](=O)[O-])CC2)Oc2ccccc21
  -2%	-2%	1%	.	.	.	-17%	.
COc1ccc(CCC(=O)OCC(=O)c2c(N)n(CC(C)C)c(=O)n(C)c2=O)cc1
  .	5%	.	-9%	-7%	.	?	.
O=C(Nc1sccc1C(=O)N1CCOCC1)c1cccnc1
  -3%	17%	2%	5%	17%	3.2%	-9%	-14%
COc1ccc(NC(=S)NCCc2ccc(Cl)cc2)c(OC)c1
  4%	-2%	16%[46.1 µM]	2%	15%	-3.9%	-10%	-2%
CCNC(=S)NS(=O)(=O)c1ccc(Cl)cc1
  14%	12%	4%	-32%	-3%	-8.0%	-24%	-1%
CC(=O)N1CCc2c(sc3c2c(=O)n(-c2ccccc2)c(=O)n3CC(=O)Nc2cccc(C)c2)C1
  .	.	-26%[46.1 µM]	.	.	0.6%	-2%	14%
COCCCNC(=O)c1ccc(Cn2c(=O)c3ccccc3n(Cc3cc(C)ccc3C)c2=O)cc1
  -16%	6%	?	7%	-3%	2.9%	-29%	?
O=C(COC(=O)c1ccco1)c1ccc(S(=O)(=O)N2CCCCC2)cc1
  ?	4%	-16%[46.1 µM]	3%	-3%	.	-7%	.
O=C1NC2(CCCCCC2)Oc2ccccc21
  2%	1%	-18%	-2%	0%	.	-21%	.
CCOC(=O)c1c(N)n(Cc2ccccc2)c2nc3ccccc3nc12
  -3%	-20%	0%	0%	7%	2.3%	-23%	-18%
CCN(CC)C(=O)CSc1nnc(-c2ccccn2)n1-c1ccccc1OC
  .	4%	.	2%	0%	.	-9%	.
COC(=O)CCC(=O)N1CCCC(N2CCN(c3cccc(C(F)(F)F)c3)CC2)C1 (configuration not stated)
  25%	-14%	-9%	-4%	1%	.	-6%	.
O=C(Nc1ccnn1C1CCN(C2CCC2)CC1)c1ccccc1
  9%	-13%	15%	-7%	1%	.	?	.
C=CCNc1nc(Cl)nc(Nc2ccc(OCC)cc2)n1
  .	1%	.	5%	3%	-1.9%	-4%	-25%
C#CCOc1ccc(C2C3=C(CC(C)(C)CC3=O)N(CC(=O)O)C3=C2C(=O)CC(C)(C)C3)cc1
  .	0%	.	?	-3%	.	-19%	.
Cc1nn(Cc2ccccc2)c(C)c1NC(=O)CSc1nc2c(c(C(F)(F)F)n1)CCc1ccccc1-2
  ?	18%	?	?	6%	-1.2%	-14%	?
CSCc1c(C(=O)Nc2ccc(N3CCOCC3)cc2)oc2ccccc12
  3%	90%	-7%	6%	11%	-0.2%	-8%	9%
CCOC(=O)CSc1nc(-c2ccccc2)nc2ccc(C)cc12
  .	-9%	.	11%	1%	.	-16%	.
COc1ccc(CCNC(=O)c2ccc(Cn3c(=O)c4ccccc4n(CC(=O)C(C)(C)C)c3=O)cc2)cc1OC
  -16%[46.1 µM]	.	?	.	.	-7.7%	-20%	?
Cc1cccn2c(=O)c3cc(C#N)c(=O)n(CC4CCCO4)c3nc12 (configuration not stated)
  .	.	2%	-1%	1%	-2.8%	.	?
COC(=O)N1CCN(CCc2ccccc2)CC1
  -2%[46.1 µM]	0%	0%[46.1 µM]	.	-1%	.	-3%	.
Cc1cccc(C(=O)Nc2ccnc(-c3ccncc3)n2)c1
  -2%	-9%	-15%	.	-1%	.	0%	.
Cc1ccc(CCNC(=O)C2CCN(S(=O)(=O)N3CCCCC3)CC2)cc1
  .	0%	.	-3%	2%	.	-22%	.
Cc1coc2cc3oc(=O)c(CCC(=O)NCCN4CCOCC4)c(C)c3cc12
  .	-20%	.	-7%	-13%	.	-12%	.
C/C(=N/NC(=O)c1ccc(Cl)s1)c1cccnc1
  ?	-9%	19%[46.1 µM]	9%	-5%	.	11%	.
CCOc1ncccc1C(=O)NCc1ccccc1F
  -11%	-4%	?	2%	-2%	.	-1%	.
Cc1ccc(NC(=O)COC(=O)CCc2c[nH]c3ccccc23)cc1[N+](=O)[O-]
  0%	-7%	1%	-33%	-49%	-8.3%	-5%	11%
CCc1ccc(OCC(=O)N/N=C(\C)c2ccc(-n3ccnc3)cc2)cc1
  -30%	-6%	?	-11%	-12%	-7.3%	1%	15%
O=C(NCCCN1CCOCC1)c1ccc(S(=O)(=O)N2CCOCC2)cc1
  5%	-3%	-12%	10%	0%	7.4%	.	3%
COc1ccc(CNC(=O)c2ccc(Cn3cc(Cl)cn3)o2)cc1
  -1%[46.1 µM]	21%	-25%[46.1 µM]	3%	2%	.	-19%	.
CCC(=O)Nc1ccc(C(=O)CSc2nnc(CNc3ccc(Cl)cc3)o2)cc1OC
  ?	-6%	0%&-29%	0%	-2%	-2.3%	.	7%
NCC1(c2ccc3c(c2)OCCO3)CCCC1
  22%	21%	?	8%	3%	2.3%	-13%	?
CCN1CCN(c2ccc(S(=O)(=O)N3CCCCC3)cc2NC(=O)CC(NC(C)=O)c2ccccc2)CC1 (configuration not stated)
  21%	-7%	23%	.	3%	.	2%	.
CC1CCCN(c2nc3c(c(=O)n(C)c(=O)n3C)n2Cc2ccccc2)C1 (configuration not stated)
  ?	13%	17%	-47%	-1%	-3.4%	-25%	9%
C=CC(=O)NC(C)(C)Cc1ccccc1
  3%	13%	6%	-1%	1%	0.9%	10%	-9%
CCCn1c(C(C)NC(=O)c2ccccc2)n[nH]c1=S (configuration not stated)
  1%	-13%	-1%	2%	0%	.	-14%	.
O=C1NN=C(c2ccc(Cl)cc2)CC1c1c[nH]c2ccccc12 (configuration not stated)
  .	-5%	.	4%	-1%	.	-30%	.
CCCCn1c(NC(=O)c2ccco2)c(S(=O)(=O)c2ccc(C)cc2)c2nc3ccccc3nc21
  -1%	-13%	-21%	16%	-1%	-17%	-15%	-3%
O=C(CCN1C(=O)/C(=C/c2ccc3c(c2)OCO3)SC1=S)Nc1ccc(C(=O)O)cc1
  ?	1%	?	1%	0%	.	25%	.
COc1cccc(C(=O)NCC(c2ccc(N(C)C)cc2)N2CCc3ccccc32)c1 (configuration not stated)
  -9%[46.1 µM]	.	.	.	.	-13%	-16%	?
COc1ccc(NC(=O)CCC(=O)N(Cc2ccc(OC)c(OC)c2)c2nccs2)cc1
  1%	4%	?	8%	2%	-5.2%	-20%	-1%
Cc1ccc(CNS(=O)(=O)c2c(C(=O)N3CCCCCC3)c(C)n(C)c2C)cc1
  -2%[46.1 µM]	-8%	0%[46.1 µM]	-1%	-11%	.	42%[activator]	.
COc1ccc(N(Cc2nnc3n2CCCCC3)C(=O)Nc2ccccc2)cc1
  1%	-7%	1%	.	2%	.	6%	.
Cn1c(=O)[nH]c(=O)c2c1nc(N1CCCCC1)n2CC(O)COc1ccccc1 (configuration not stated)
  .	12%	.	1%	6%	.	?	.
COc1ccc(C(=S)N2CCCC2)cc1
  16%	-3%	1%	12%	28%	-1.8%	-16%	-3%
O=C(O)/C=C/C(=O)Nc1ccc(Oc2ncnc3cc(Cl)ccc23)nc1
  6%[46.1 µM]	32µM*	15%[46.1 µM]	0%	-7%	.	12%	.
COc1ccc(/C=N/NC(=O)CSc2ccccc2)cc1OC
  ?	.	21%	-13%	-25%	-5.4%	-10%	1%
CCN(Cc1ccc(OC)c(COC)c1)CC1CCCN(CCc2cccc(OC)c2)C1 (configuration not stated)
  .	-1%	.	3%	-6%	.	-30%	.
Cc1ccc(C2=[N+]([O-])C(C)(C)CC2)cc1
  24%	8%	13%[46.1 µM]	1%	10%	1.1%	20%	1%
CN(c1ccccc1C(=O)N1CCCC1)S(C)(=O)=O
  0%	4%	3%	-4%	-1%	1.4%	4%	-5%
CC(C)(C)OC(=O)N1CCC(CNC(=O)Nc2ccccc2)CC1
  ?	-12%	?	1%	0%	.	3%	.

An excerpt of these results, as labelled records:
> COc1ccc(CNC(=O)c2ccc(Cn3cc(Cl)cn3)o2)cc1
  LASV entry inh: -1%[46.1 µM] | RE007 growth inh: 21% | MARV entry inh: -25%[46.1 µM] | NS1 function inh: 3% | SARS PLP yeast: 2% | Cruzain inh Det: . | 2A StopGo: -19% | Cruzain inh noDet: .

> CCC(=O)Nc1ccc(C(=O)CSc2nnc(CNc3ccc(Cl)cc3)o2)cc1OC
  LASV entry inh: ? | RE007 growth inh: -6% | MARV entry inh: 0%&-29% | NS1 function inh: 0% | SARS PLP yeast: -2% | Cruzain inh Det: -2.3% | 2A StopGo: . | Cruzain inh noDet: 7%
